UUG fidelity – yeast start codon fidelity modulation; S. cerevisiae UUG-firefly luciferase reporter, luminescence/redox ratio; activity score, % at 18.7 µM; AID 602363; 0.13% of 350,000 active;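 active means replicate mean at a twofold rise or more, about +100% in these data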;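 further: firefly luciferase made from a UUG start codon reports start codon fidelity; reporter light over untreated wells divided by growth signal over untreated wells; some hits fall short of that in this replicate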
CSC inhib – blocks cancer stem cells; cancer stem cell-like cells viability, luminescence; inhibition, % at 7.5 µM; 1.1% of 300,000 active;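 active means mean at 75% or more and at least half the replicates too; inconclusive means mean and replicates disagree; tested in HMLE shEcad cells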;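 further: 0% = median of negative and 100% = median of positive control wells; the first replicate is given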
Rce1 inh – blocks yeast Ras-converting enzyme; 0.27% of 290,000 active; Q03530; yeast membranes, quenched prenylated peptide cleavage fluorescence; calls only;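 active means fall in fluorescence gain of 50% or more versus controls, with final raw signal at or below 3038400; inconclusive means same 50% fall but final raw signal above 3038400; inactive means fall in fluorescence gain under 50%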;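 further: plate controls were neutral control wells for no effect and wells lacking membranes for full effect; tested at 10 µM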
MT1-MMP act inh – inhibitors of human MT1-MMP activation; P50281; HT1080 RFP-PRO-GFP cells, GFP/RFP ratio fluorescence, overnight; percent of plate control window, DMSO zero; GFP/RFP ratio change, % at 20 µM; 0.061% of 360,000 active;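 active means GFP/RFP ratio change of at least 30% with cell ATP level not reduced by more than half and red fluorescence within 50% of control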; further: strong numbers were not always called active
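Material: RFP-PRO-GFP reporter HT1080 cells. Dosing: single-point 20 µM compound, 1% DMSO. Controls: DMSO and RFP-L50D-GFP cell wells. Timing: cells overnight before dosing, compound overnight, 37 °C, 5% CO2. Measure: GFP/RFP fluorescence ratio.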
eIF4H FP inh – inhibitors of RNA binding by human eIF4H; Q15056; eIF4H fluorescence polarization binding assay; inhibition, % at 35 µM; 0.94% of 290,000 active;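 active means 50% or more with normal probe brightness, or confirmed in later tests; inconclusive means above 50% with abnormal brightness, or retests that disagree; inactive means below 50% or failed in later tests; about a fifth of its hits are not listed in these tables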;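 further: calls also rest on retests at 20 µM and on dose response follow-up; 0% = protein and probe with vehicle and 100% = probe without protein; strong numbers were not always called active; many hits fall short of the cut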
PABP FP inh – PABP-poly(A) binding inhibition; PABP-poly(A) RNA binding, fluorescence polarization; AID 2014; 1% of 290,000 active; inhibition, % at 35 µM; P11940;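 active means 50% or more with normal probe brightness, or confirmed in later tests; inconclusive means above 50% with abnormal brightness, or retests that disagree; inactive means below 50% or failed in later tests; about a fifth of its hits are not listed in these tables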;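 further: calls also rest on retests at 20 µM and on dose response follow-up; controls were probe without protein and protein plus probe with vehicle; some compounds called inactive have numbers as strong as hits; many hits fall short of the cut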
Target sequence (P11940 whole entry, looked up): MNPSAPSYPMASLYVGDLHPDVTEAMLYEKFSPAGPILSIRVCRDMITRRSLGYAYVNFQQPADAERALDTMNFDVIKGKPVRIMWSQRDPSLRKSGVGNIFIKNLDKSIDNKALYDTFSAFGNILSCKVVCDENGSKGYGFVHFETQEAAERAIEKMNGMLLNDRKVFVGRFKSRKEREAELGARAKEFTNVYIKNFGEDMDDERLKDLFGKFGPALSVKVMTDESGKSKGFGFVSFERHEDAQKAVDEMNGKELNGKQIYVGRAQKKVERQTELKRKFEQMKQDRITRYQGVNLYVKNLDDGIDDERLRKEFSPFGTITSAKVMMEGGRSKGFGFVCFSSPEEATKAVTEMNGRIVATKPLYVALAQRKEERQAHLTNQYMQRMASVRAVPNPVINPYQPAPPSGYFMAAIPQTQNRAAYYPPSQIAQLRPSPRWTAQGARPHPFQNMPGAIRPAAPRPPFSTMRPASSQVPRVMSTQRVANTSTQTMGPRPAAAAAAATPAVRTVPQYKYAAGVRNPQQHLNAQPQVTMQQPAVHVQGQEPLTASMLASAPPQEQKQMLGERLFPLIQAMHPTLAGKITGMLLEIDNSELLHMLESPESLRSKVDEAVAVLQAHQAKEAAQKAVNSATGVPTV
HIV Env fusion – blocks HIV Env-driven cell-cell fusion. HeLa-JRFL Env/CEM21 cell fusion, luciferase. inhibition, % at 12.3 µM. AID 651610. 1.1% of 360,000 active;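 active means mean replicate inhibition score of at least 50 and every replicate individually at or above 50; inconclusive means only one of the two criteria met; inactive means mean below 50 and not all replicates reaching 50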;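 further: 0% = plate neutral controls and 100% = maraviroc near 300 nM; one replicate is shown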
MT1-MMP act inh RFP – second read-out of MT1-MMP act inh, no call of its own (marks repeat the call); RFP signal change, %; measured here: RFP expression control read;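 0 = vehicle wells; hits needed this value within 50% of zero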
* marks the source's active call; other numbers are inactive results; i = inactive; ? = inconclusive; nt = no result given.

SMILES	UUG fidelity	CSC inhib	Rce1 inh	MT1-MMP act inh	MT1-MMP act inh RFP	eIF4H FP inh	PABP FP inh	HIV Env fusion
CCc1nc2ccccc2c(C(=O)OCC(=O)NC(=O)c2cccn2C)c1C	-16	20	i	1	5	-1	-2	12
COc1ccc(NC(=O)C(Cc2ccccc2)n2cccc2)cc1OC (stereo not given)	-9	-2	i	-2	-3	9	0	-7
O=C(CNC(=O)c1ccccc1Cl)OCC(=O)N1CCc2ccccc21	-13	-12	i	0	-1	-4	7	-20
COc1ccc(NC(=O)CCSCCc2ccccn2)cc1OC	-31	5	i	4	-1	-5	0	0
Cn1cnnc1SCC(=O)Nc1ccc2nc(SCc3ccccc3Cl)sc2c1	-15	-10	i	2	-3	0	0	-33
Cc1ccc(S(=O)(=O)NCCCNC(=O)c2ccccc2)cc1	-9	-16	i	3	2	14	1	-46
CCOC(=O)C1CSC(CC(=O)Nc2ccc(Cl)cc2)C(=O)N1 (stereo not given)	-8	2	i	-2	-1	-11	-4	nt
COc1cc(C(N)=O)cc(Br)c1OC	nt	-2	i	-8	-6	4	37	nt
O=C(COC(=O)C1CCCO1)Nc1nc(-c2ccc(F)cc2)cs1 (stereo not given)	-19	-5	nt	1	3	nt	nt	-33
CCSc1nc2ccccc2n1C(=O)c1ccc(S(=O)(=O)N2CCCCC2)cc1	-29	-5	i	3	1	0	1	-4
CNC(=S)N(Cc1ccc(Cl)cc1)Cc1cccs1	-24	-2	i	-4	-7	-6	0	19
COc1ccc(N2C(=O)C3CCCN3C2c2ccc(F)cc2)cc1Cl (stereo not given)	-9	-17	i	-3	1	-10	-1	-47
CCOC(=O)N1CCN(S(=O)(=O)N2CCCC(C(=O)NCc3ccc(OC)cc3)C2)CC1 (stereo not given)	18	-14	i	2	-1	8	2	-2
COc1ccc(Cl)cc1C(=O)Nc1ccccc1N1CCN(C)CC1	nt	-4	i	-11	-1	-7	-10	8
Cc1ccccc1/C=N/n1c(COc2ccccc2)n[nH]c1=S	-5	6	i	-4	-3	15	4	14
CCOC(=O)NC(=O)C(=CNc1ccccc1OC)C(=O)NC(=O)OCC	-2	-14	i	1	-3	-6	16	9
COc1ccc(C2=Nc3ccccc3NC(=O)C2N(C(=O)c2cc3ccccc3[nH]2)c2ccccc2)cc1 (stereo not given)	1	nt	nt	-2	3	nt	nt	-39
Cc1ccc(-n2nnnc2CNC(=O)C(=O)c2c[nH]c3ccccc23)cc1C	7	nt	nt	2	3	nt	nt	-15
CCCCn1c(=O)[nH]c(=O)c2c1nc(-c1ccc(OC(F)F)c(OC)c1)n2C	-17	nt	i	4	7	4	2	26
COc1ccccc1OCC(=O)OCn1c(SC)nnc(C)c1=O	-7	nt	i	0	2	-6	6	4
Cc1ccc(C(=O)N/N=C/c2ccc(-c3ccc(Br)cc3[N+](=O)[O-])o2)o1	-10	12	nt	1	21	13	18	1
CNC(=S)N1N=C(c2ccc(OC)cc2)CC1c1ccc(N(C)C)cc1 (stereo not given)	-21	-10	i	1	-2	-6	-1	nt
CC1Cc2ccccc2C(=O)N1 (stereo not given)	nt	-2	i	5	8	8	-5	nt
Cc1ccc(Cn2c(=N)c(S(=O)(=O)c3ccc(Br)cc3)cc3c(=O)n4ccccc4nc32)cc1	-15	-1	i	-5	-5	3	1	nt
Cn1cccc1Cc1nnc(SCC(=O)Nc2cccc(F)c2)n1CCc1ccccc1	-17	5	i	-4	-4	-12	-30	-1
COc1ccc(S(=O)(=O)N(C)CC(=O)N2CCC(C(N)=O)CC2)cc1	-7	0	i	2	0	-18	1	nt
Cc1cnc(C(=O)Nc2cc(S(=O)(=O)N3CCOCC3)ccc2N2CCN(C)CC2)cn1	nt	-8	i	-6	0	4	6	11
O=C(O)Cc1csc(-c2cccc(F)c2)n1	0	-9	i	-2	0	-2	5	9
CC(=O)Nc1nc(SCC(=O)NCc2ccc(F)cc2)[nH]c(=O)c1NC(=O)c1cccs1	-18	-9	i	1	6	3	-14	11
CCOC(=O)c1c(C)n(C)c2ccc(OC(=O)c3ccoc3)cc12	-19	-16	i	14	4	2	-2	nt
Cc1c(Cl)cccc1NC(=S)N(CCN(C)C)C(C)c1ccco1 (stereo not given)	-15	1	i	0	2	-3	-6	11
COc1cccc(C(c2cccc(OC)c2)c2ccccc2C(=O)O)c1	-14	nt	nt	-10	1	nt	nt	-2
COc1ccccc1N/C(=N/S(=O)(=O)c1ccc(C)cc1)c1ccc(Cl)cc1	4	nt	nt	-1	-4	3	3	nt
Cc1ccc(-n2ncc3c2CCCC3NC(=O)c2ocnc2C)cc1C (stereo not given)	-16	4	i	7	-29	4	-14	nt
NC(=O)c1cccc(N=Cc2cc(Cl)cc(Cl)c2O)c1	nt	nt	i	0	8	29	25	12
COc1ccc(OCC(=O)N/N=C(\C)c2cccs2)cc1	-4	-11	i	-2	1	-5	0	7
Cc1cc(OCC(=O)OCC(=O)NCc2ccc3c(c2)OCO3)ccc1Cl	-17	-7	nt	-4	3	nt	nt	nt
CC(C)C(NC(=O)CNC(=O)OC(C)(C)C)C(=O)NCc1ccc(Cl)cc1 (stereo not given)	nt	-9	i	-3	2	1	?	-4
O=C(COC(=O)CCSc1ccccc1)Nc1ccccc1Br	-11	-19	nt	-1	0	nt	nt	nt
Cc1nnc(SCCCCSc2nnc(C)c(=O)[nH]2)[nH]c1=O	nt	-1	i	2	2	5	-5	12
CCCS(=O)(=O)NC(=O)C1(C)CCN(C(=O)c2cccnc2Oc2ccccc2)C1 (stereo not given)	-12	nt	nt	-4	0	nt	nt	-14
CCOC(=O)Nc1cc(C)ccc1OC	-3	-12	i	1	5	-7	6	-22
CC1CCN(C(=S)c2cn(Cc3cccc(F)c3)c3ccccc23)CC1	nt	31	i	-5	-7	-1	-11	-10
CSc1nnc(CCNS(=O)(=O)c2ccc(Br)cc2)n1C	-13	-3	i	3	6	-1	3	2
Nc1cc(N2CCCCCC2)c2nonc2c1[N+](=O)[O-]	-7	-4	i	3	-9	?	?	30
COCc1nc2ccccc2n1Cc1ccccc1Br	-15	-3	i	3	-1	3	-3	-22
O=C(CNC(=O)c1ccco1)NCC(=O)OCc1ccc(Cl)cc1	-22	nt	nt	0	0	-3	-3	nt
CC(=O)OCC(=O)[C@@]12OC(C)(C)O[C@@H]1CC1C3C[C@H](F)C4=CC(=O)C=CC4(C)[C@@]3(F)C(O)CC12C (stereo not given in full)	0	0	i	-4	1	nt	nt	9
O=C(O)CCSc1nnnn1-c1ccccc1	-16	2	i	-2	5	-3	-3	nt
O=C(Nc1ccc(OC(F)(F)F)cc1)c1cnc2n(c1=O)CCS2	-16	-1	i	-2	-6	-7	1	0
(listing goes on)
SMILES	UUG fidelity	CSC inhib	Rce1 inh	MT1-MMP act inh	MT1-MMP act inh RFP	eIF4H FP inh	PABP FP inh	HIV Env fusion
COc1ccc(N=C2S/C(=C\c3ccc(C)s3)C(=O)N2CC(C)C)cc1	-8	-14	i	-8	-3	-8	-2	nt
OC[C@H]1OC(O)[C@H](O)[C@@H](O)[C@H]1O (stereo not given in full)	2	-6	i	0	1	nt	nt	-12
COc1cc(S(=O)(=O)Nc2ncccc2C)c(OC)cc1Cl	-2	-6	i	5	-1	5	-3	nt
S=C(NCCc1ccccc1)Nc1c(Cl)cccc1Cl	nt	1	i	2	4	-8	-3	7
N#Cc1c(NC(=O)c2cc(C3CC3)on2)sc2c1CCC2	-13	46	i	3	-13	9	3	-34
COc1ccc(N2CCN(CC(=O)Nc3cccc(S(=O)(=O)N4CCOCC4)c3)CC2)cc1	5	-4	i	0	-6	1	-6	10
Cc1cc(NC(=O)CCC(=O)N(c2ccc(F)cc2)C(C(=O)NC2CCCC2)c2ccc(C)o2)no1 (stereo not given)	2	nt	i	-2	-3	-4	4	20
CCN(CCCNC(=O)CCc1nc(-c2ccc(C)cc2)no1)c1cccc(C)c1	-6	-3	i	2	-7	-12	-15	nt
O=C1CC(SCc2nc3ccccc3[nH]2)C(=O)N1c1cccc(F)c1 (stereo not given)	-25	nt	i	-17	7	12	4	nt
S=C(NCc1ccccc1)NC1CCCc2ccccc21 (stereo not given)	nt	-1	i	-4	-7	1	4	12
c1ccc2c3c([nH]c2c1)CCNC3	-11	-15	i	-5	3	-6	-2	26
COc1cc(S(=O)(=O)Nc2cccnc2)ccc1F	-8	16	i	7	32	-10	0	nt
O=C(C1CCCCC1)N1CCN(c2ccccc2F)CC1	-20	-8	i	2	2	-13	1	37
Cc1ccc(Nc2c(-c3ccc(C)o3)nc3ncccn23)cc1	nt	17	i	-6	0	-4	2	-2
COc1ccc(N(CC(=O)NC2CCCCC2)C(=O)CCC(=O)Nc2nc(C)cs2)cc1OC	2	1	i	1	3	3	4	-2
CCOc1nc(N2CCCCC2)nc(-n2cc(-c3ccccc3)nn2)n1	-17	-10	i	0	8	-4	10	nt
CC(=O)N1CCc2cc(S(=O)(=O)NCC(=O)NCc3ccccc3Cl)ccc21	-15	-10	i	1	-1	-19	-3	2
Cc1ccc2c(CN3CCCCC3)cc(=O)oc2c1C	-6	13	i	-1	3	-1	8	5
CCOC(=O)C1=C(COC(=O)CCc2ccccc2)NC(=O)NC1C (stereo not given)	-4	-12	nt	0	-1	nt	nt	-8
CCOC(=O)c1cc(C#N)c(N2CCCCC2)nc1-c1ccccc1	-2	47	i	-5	-6	nt	nt	nt
COc1ccc(NC(=O)C2C(=O)N(C)C3(C)CC2c2ccccc2O3)cc1 (stereo not given)	nt	-9	i	2	0	-8	4	nt
